Bioassay records (PubChem BioAssay)
MgrA-DNA mod: S. aureus MgrA activity modulators, primary screen, biochemical, S. aureus Newman, fluorescence polarization. MgrA-DNA binding. inhibition, %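 (about 10 µg/mL by stock and volumes)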. 84,000 compounds, 0.13% hits. AID 602314, 2012;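 active = above 50% in either of two replicates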;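 also: 0% = protein plus DNA without compound and 100% = DNA alone without protein; higher means less MgrA bound to DNA so lower polarization; one replicate is shown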
S aureus helic: inhibitors of S. aureus replicative helicase, primary screen, biochemical, fluorescence unwinding readout; 120,000 compounds, 0.05% hits; purified S. aureus helicase, fluorescence unwinding assay; about half of the hits fall short of the stated cut; inhibition, %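 (tested at about 80 µM)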; AID 485395, 2010;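 active = both duplicates at 50% or more, or one of them with a favoured structure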;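 also: 0% = mean of negative control wells and 100% = mean of positive control wells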
Numbers without * were called inactive; . = not tested or not shown; & = joins results of further samples. A portion of the library (hit frequency here may not be typical).

#1 O=C1CSC(c2ccc3cccc(O)c3n2)N1c1ccc(Cl)cc1 (stereo not drawn)
#2 O=C(O)CNC(=O)c1ccccc1
#3 O=C(O)C(O)C(O)C(O)C(O)C(=O)O (stereo not drawn) (tested in a mixture with another compound)
#4 Cc1cc(=O)n(-c2ccccc2)[nH]1
#5 CCOC(=O)NNc1nncc2ccccc12
#6 CCCCOc1ccc(CC(=O)NO)cc1
#7 Cc1cccc(Nc2cc(Cl)nc(SCC(=O)O)n2)c1C
#8 O=C(O)/C=C/c1ccc(O)cc1
assay / entry | 1 | 2 | 3 | 4 | 5 | 6 | 7 | 8
MgrA-DNA mod | . | 0.3 | -0.1 | 5.0 | -3.0&-0.1 | 11.4&5.2 | -3.5 | -2.1
S aureus helic | -16.0 | 11.0 | . | -5.0 | . | . | . | 14.0

#9 CCC(=O)O[C@]1(C(=O)SCF)[C@H](C)C[C@H]2[C@@H]3C[C@H](F)C4=CC(=O)C=C[C@]4(C)[C@@]3(F)[C@@H](O)C[C@@]21C
#10 CCCCCC(=O)O[C@]1(C(C)=O)CCC2C3CCC4=CC(=O)CC[C@]4(C)C3CC[C@@]21C (stereo partly drawn)
#11 CCc1c2c(nc3ccc(OC(=O)N4CCC(N5CCCCC5)CC4)cc13)-c1cc3c(c(=O)n1C2)COC(=O)[C@]3(O)CC
#12 CC(=O)Nc1ncc([N+](=O)[O-])s1
#13 COc1cc([C@H]2Oc3cc([C@H]4Oc5cc(O)cc(O)c5C(=O)[C@@H]4O)ccc3O[C@@H]2CO)ccc1O
#14 CNc1c2c(nn1C)CCCC2
#15 Cc1cc(C)cc(OCC2CNC(=O)O2)c1 (stereo not drawn)
#16 CC(=O)Nc1ccc(S(=O)(=O)Nc2cc(C)on2)cc1
assay / entry | 9 | 10 | 11 | 12 | 13 | 14 | 15 | 16
MgrA-DNA mod | -4.0 | 3.0 | 0.9 | 6.1 | 6.0 | -5.5 | 0.1 | -2.1
S aureus helic | . | . | . | . | . | . | . | .

Entries shown so far with four or more nitrogen atoms (2):
#5 CCOC(=O)NNc1nncc2ccccc12
#11 CCc1c2c(nc3ccc(OC(=O)N4CCC(N5CCCCC5)CC4)cc13)-c1cc3c(c(=O)n1C2)COC(=O)[C@]3(O)CC
assay / entry | 5 | 11
MgrA-DNA mod | -3.0&-0.1 | 0.9
S aureus helic | . | .

Single records, from the list above. Order of values: MgrA-DNA mod, S aureus helic
`CC(=O)Nc1ncc([N+](=O)[O-])s1` across the screens: 6.1, .
`CC(=O)Nc1ccc(S(=O)(=O)Nc2cc(C)on2)cc1` across the screens: -2.1, .

More results
#17 O=C(O)C1[C@H]2C[C@H]3c4[nH]c5ccccc5c4CCN3C[C@@H]2CC[C@@H]1O (stereo partly drawn)
#18 CC(=O)N1CC(O)C[C@H]1C(=O)O (stereo partly drawn)
#19 Nc1ncnc2nc[nH]c12
#20 CCn1cc(C(=O)O)c(=O)c2cc(F)c(N3CCNCC3)nc21
#21 CCCCCCc1ccc(O)cc1O
#22 Cc1cccc(C)c1NC(=O)C1CCCCN1C (stereo not drawn)
#23 CCCCC1C(=O)N(c2ccccc2)N(c2ccccc2)C1=O
#24 C=C1c2cccc(O)c2C(O)=C2C(=O)[C@]3(O)C(O)=C(C(N)=O)C(=O)[C@@H](N(C)C)[C@@H]3[C@@H](O)[C@H]12
assay / entry | 17 | 18 | 19 | 20 | 21 | 22 | 23 | 24
MgrA-DNA mod | 15.6 | 2.6 | 0.6 | -1.5&0.1 | 3.0 | 0.2 | -0.3 | 7.1&6.8
S aureus helic | -13.0 | . | . | . | . | . | . | .

Reprinted from the part before: four compounds, then new ones.
#21 CCCCCCc1ccc(O)cc1O
#22 Cc1cccc(C)c1NC(=O)C1CCCCN1C (stereo not drawn)
#23 CCCCC1C(=O)N(c2ccccc2)N(c2ccccc2)C1=O
#24 C=C1c2cccc(O)c2C(O)=C2C(=O)[C@]3(O)C(O)=C(C(N)=O)C(=O)[C@@H](N(C)C)[C@@H]3[C@@H](O)[C@H]12
#25 C#C[C@]1(O)CCC2C3CCC4=CC(=O)CC[C@@H]4C3CC[C@@]21CC (stereo partly drawn)
#26 CC(=O)Nc1ccc(O)cc1
#27 COc1ccccc1OCCNCC(O)COc1cccc2[nH]c3ccccc3c12 (stereo not drawn)
#28 CC(=O)Nc1ccccc1
#29 Cn1c(=O)c2c(ncn2CCO)n(C)c1=O
#30 Nc1c2ccccc2nc2ccccc12 (tested in a mixture with another compound)
#31 COc1ccc(/C=C/C(=O)O)cc1
#32 NC(N)=NC(=O)Cc1c(Cl)cccc1Cl
#33 NC(=NCc1ccccc1)NC(=O)c1nc(Cl)c(N)nc1N
#34 CCOc1cc2c3c(c1)c(C1=NC(=S)NC1=O)c(O)n3C(C)(C)CC2C (stereo not drawn)
assay / entry | 21 | 22 | 23 | 24 | 25 | 26 | 27 | 28 | 29 | 30 | 31 | 32 | 33 | 34
MgrA-DNA mod | 3.0 | 0.2 | -0.3 | 7.1&6.8 | 3.8 | -1.8&4.5 | 0.1 | -1.1 | 3.7 | 2.1 | . | 4.2 | -1.5&2.7 | 0.8
S aureus helic | . | . | . | . | . | . | . | . | 8.0 | . | -11.0 | . | . | 3.0
